rRNA inh HTS = reduced GFP signal of wild-type E. coli, primary screen, bacterial rRNA inhibitor project, GFP/RFP fluorescence, OD600, single point; GFP signal change (wild-type ribosome), % (no concentration beside the values); E. coli WT GFP vs humanized-ribosome RFP mutants, 24 h; stronger effect = lower value; DMSO median 0, no signal -100; AID 720706, 2013; 350,000 tested, 1.6% active;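 active means significant combined selectivity score with lowered wild-type GFP, culture density cut under 30%, mutant RFP and density less affected; inactive means any of these conditions unmet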; further: one replicate is shown; some compounds called inactive have numbers as strong as hits
MLL AF4-AF9 inh = inhibitors of AF4 peptide binding to AF9, primary screen, biochemical, AlphaScreen, biotin-AF4 peptide, FLAG-AF9, single point; Protein AF-9 (Homo sapiens), P42568; inhibition, % at 10 µM; 350,000 tested, 0.47% active; AID 651704, 2012;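 active means every replicate reaching a set inhibition limit, whatever the replicate mean, cut at about 25% in these data; inconclusive means mean inhibition reaches that limit but some replicates miss it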;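 further: 0% = plate neutral control median and 100% = total signal loss; the record names both 10 and 1 µM as test concentration; the first replicate is given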
HNF4A DNA FP = change in binding of human HNF4A to DNA, primary screen, biochemical, fluorescence polarization, FITC-DNA; Hepatocyte nuclear factor 4-alpha (Homo sapiens), P41235; 1 h; activity change, % at 10 µM; 360,000 tested, 0.3% active; AID 1224865, 2016; in the data active means activity change above about 30%, passing the limit was not always enough;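 further: controls were the assay level and a saturating level of protein; the project sought stronger binding though the title names inhibitors; some compounds called inactive have numbers as strong as hits; positive values seem to mean higher polarization but the record does not say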
Target sequence (P41235 whole entry, looked up): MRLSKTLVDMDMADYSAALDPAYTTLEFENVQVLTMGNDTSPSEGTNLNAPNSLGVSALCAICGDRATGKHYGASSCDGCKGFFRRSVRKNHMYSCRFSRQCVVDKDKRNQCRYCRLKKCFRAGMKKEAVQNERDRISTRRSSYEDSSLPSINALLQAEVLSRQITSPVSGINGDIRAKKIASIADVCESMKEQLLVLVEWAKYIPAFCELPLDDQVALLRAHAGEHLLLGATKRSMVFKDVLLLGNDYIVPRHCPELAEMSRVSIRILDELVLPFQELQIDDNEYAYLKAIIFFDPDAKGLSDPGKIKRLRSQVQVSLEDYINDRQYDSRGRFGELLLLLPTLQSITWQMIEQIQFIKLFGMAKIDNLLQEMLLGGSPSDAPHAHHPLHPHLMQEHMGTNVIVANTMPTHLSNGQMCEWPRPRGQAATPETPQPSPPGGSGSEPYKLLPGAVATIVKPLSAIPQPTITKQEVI
FGF22 binding = binders of human FGF22 protein, primary screen, FGF22 synaptogenesis inhibitor project, biophysical, thermal shift, single point. Fibroblast growth factor 22 (Homo sapiens), Q9HCT0. recombinant FGF22 thermal shift, SYPRO orange fluorescence; percent of sucrose octasulfate shift, DMSO zero. calls only at 9.99 µM. 340,000 tested, 1.5% active;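 active means melting point raised past a set limit in the mean and every replicate; inconclusive means no clear call; three in four hits are not shown here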
Target sequence (Q9HCT0 whole entry, looked up): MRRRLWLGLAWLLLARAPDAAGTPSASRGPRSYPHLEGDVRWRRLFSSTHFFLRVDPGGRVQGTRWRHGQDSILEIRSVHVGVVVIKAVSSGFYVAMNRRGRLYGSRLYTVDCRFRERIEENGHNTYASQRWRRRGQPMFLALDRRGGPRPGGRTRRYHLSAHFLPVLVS
Vif TR-FRET = inhibitors of Vif binding to APOBEC3G peptide, primary screen, biochemical, TR-FRET, GST-Vif 1-94, biotin-A3G peptide, dose response retest (AID 1117319); Virion infectivity factor (Human immunodeficiency virus type 1 group M subtype B (isolate …; TR-FRET GST-Vif / biotin-A3G peptide binding; higher % means a stronger effect; test concentration not given here; strong numbers were not always called active; inhibition, %; hits with a dose series show IC50 in µM; 260,000 tested, 0.57% active;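 active means above the screen mean plus three standard deviations and confirmed in dose response; inconclusive means results disagree or hit not tested in dose response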;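 further: Vif residues 1-94 fused to GST binding biotinylated APOBEC3G peptide 110-148; 0% = full assay without inhibitor and 100% = GST in place of GST-Vif; retest series ran down from 100 µM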
ALR inh = inhibitors of human ALR sulfhydryl oxidase, primary screen, biochemical, H2O2 detection, HRP-luminol luminescence, single point | FAD-linked sulfhydryl oxidase ALR (Homo sapiens), P55789 | purified ALR, DTT oxidation | inhibition, % (no concentration beside the values) | 290,000 tested, 3.8% active | AID 485317, 2010;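 active means mean and each replicate at 75% or more; inconclusive means only one of the two met; inactive means neither met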;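 further: stock transfer was 7.5 nL into about 7.5 µL; 0% = neutral wells and 100% = wells with inactivated enzyme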
Target sequence (P55789 whole entry, looked up): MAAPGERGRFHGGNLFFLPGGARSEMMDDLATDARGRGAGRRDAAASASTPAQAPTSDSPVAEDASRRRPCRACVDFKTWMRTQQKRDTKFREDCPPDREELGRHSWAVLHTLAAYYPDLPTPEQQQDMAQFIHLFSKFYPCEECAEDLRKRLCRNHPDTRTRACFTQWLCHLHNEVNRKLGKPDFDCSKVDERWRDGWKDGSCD
Ecoli growth = E. coli growth inhibition, primary screen, OD600 | Escherichia coli growth, 23 h; stronger effect = lower value | OD600 absorbance (no concentration beside the values) | 330,000 tested, 0.21% active | AID 1053175, 2014;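 active means OD600 absorbance below the run mean of sample wells minus 3.6 SD, in any replicate, cut at about 0.56 in these data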;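 further: stock transfer was 300 nL into about 60 µL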
rRNA inh HTS OD600 = further read-out of rRNA inh HTS, marked with its call; OD600 change, %; measured here: OD600 growth;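 optical density of the mix in the first replicate; 0 = DMSO median and -100 = no signal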
rRNA inh HTS RFP = recorded beside rRNA inh HTS, whose call it bears; RFP signal change, %; measured here: RFP humanized mutant strains;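 first replicate; 0 = DMSO median and -100 = no signal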
An asterisk follows results filed as active; i = inactive; ? = inconclusive; . = no result given; & = joins results of further samples.

compound	rRNA inh HTS	rRNA inh HTS OD600	rRNA inh HTS RFP	MLL AF4-AF9 inh	HNF4A DNA FP	FGF22 binding	Vif TR-FRET	ALR inh	Ecoli growth
O=C(CSc1nc(-c2ccco2)cc(C(F)(F)F)n1)NCCN1CCOCC1	.	.	.	.	-1.4	.	12%	-9	0.67
O=C(CC1OCC2CCCN2C1=O)Nc1ccc([N+](=O)[O-])cc1 (centres undefined)	1	7	-1.1	2.5	-2.3	i	.	.	0.66
C=CCSc1nc2c(c(=N)n1CC=C)C1CCCC1S2 (centres undefined)	.	.	.	.	0.9	.	5%	7	0.73
COc1ccc(C)cc1NC(=O)CO/N=C(\N)CC(=O)Nc1ccccc1OC	-6	0	1.5	5.9	6.8	i	-11%	.	0.68
CC1(C)CC(=O)C(C(c2ccccc2F)C2C(=O)CC(C)(C)CC2=O)C(=O)C1	.	.	.	.	-2.1	.	-2%	10	0.73
Cc1ccc(C)c(-n2ccnc2SCC(=O)Nc2cccc(S(=O)(=O)NC3=NCCC3)c2)c1	.	.	.	1.9	0.5	i	.	-4	0.72
Cc1cc(NC(=O)C(C)Sc2nc(-c3ccccc3)cc(=O)[nH]2)no1 (centres undefined)	-1	-5	-3.1	-0.1	-1.0	i	.	2	0.65
CCOC(=O)/C(C#N)=C/c1cc(C)n(-c2ccc(C)cc2)c1C	3	-12	-1.5	.	-1.3	.	3%	-4	0.71
C[C@@H]1CN([C@@H](C)CO)C(=O)c2cc(NC(=O)Nc3ccc4c(c3)OCO4)ccc2O[C@@H]1CN(C)C(=O)NC1CCCCC1	-1	-4	-1.6	3.3	.	i	.	.	.
COC(=O)C1=CN(Cc2ccc(OC)cc2)C=C(C(=O)OC)C1c1ccc(O)c(OC)c1	3	5	-0.9	1.9	1.1	.	-9%	2	.
CCC(C(=O)NCC1CCCO1)N(Cc1ccccc1)C(=O)CNS(=O)(=O)c1ccccc1 (centres undefined)	1	2	0.1	2.7	-2.0	i	2%	.	0.66
C[C@@H]1CN([C@@H](C)CO)C(=O)c2cccc(NS(C)(=O)=O)c2O[C@@H]1CN(C)CC1CC1	6	14	-1.4	-8.0	.	i	.	.	.
CCOC(=O)C1=CCC2C(=O)N(C3CCCCC3)C(=O)C12 (centres undefined)	10	8	3.1	-1.0	-0.4	i	.	.	.
Cc1cc(C)nc(NC(=O)c2ccc([N+](=O)[O-])o2)n1	6	7	-5.4	-0.5	-3.7	i	?	-28	0.7
CCC(=O)N(C)C[C@@H]1Oc2cc(-c3cccc(C#N)c3)ccc2S(=O)(=O)N([C@H](C)CO)C[C@H]1C	-7	-15	-3.3	-3.3	.	i	.	.	.
O=C(Nc1ccc(F)cc1)N(Cc1nnc2n1CCCCC2)c1ccccc1	.	.	.	.	-0.1	.	-3%	-3	0.74
C[C@@H]1CN([C@@H](C)CO)C(=O)c2cc(NS(C)(=O)=O)ccc2O[C@H]1CN(C)Cc1ccc(Cl)c(Cl)c1	-8	-15	-1.7	-5.0	.	i	.	.	.
COCCNC(=O)CN1CCN(C(c2ccccc2)c2ccccc2)CC1	22	-1	1.7	1.8	-1.5	i	1%&1%	1	0.67
CN(C)C(=O)C[C@H]1C[C@H]2c3cc(NC(=O)Nc4ccc(F)cc4)ccc3O[C@H]2[C@H](CO)O1	1	13	-1.4	0.0	.	i	.	.	.
Cc1ccc(S(=O)(=O)NCC2(c3ccccc3)CCN(C)CC2)cc1	5	7	2.5	0.5	-1.3	i	.	-4	0.66
Cc1ccc(C)c(C(=O)Cn2c(NCCO)nc3ccccc32)c1	1	-1	0.3	0.4	1.2	i	8%	1	0.68
COc1ccccc1-c1cn(CC[C@@H]2CC[C@@H](NC(=O)NC(C)C)[C@H](CO)O2)nn1	-1	2	-4.5	-3.7	.	i	.	.	.
CC(C)Cn1c(SC(C)C(=O)NCC2CCCO2)nc2ccc(Cl)cc2c1=O (centres undefined)	13	10	1.0	-2.9	-0.8	i	-6%	-5	0.7
COc1cccc(OC)c1C(=O)N1CCN(Cc2cccnc2)CC1	20	11	-0.3	0.6	2.7	i	-4%	7	.
O=C(Nc1cccc(F)c1)N1C[C@H]2[C@@H](c3ccccc31)[C@@H](CO)N2C(=O)c1cccnc1	-1	3	-1.1	-0.1	.	i	.	.	.
CC(C)NC(=O)N(C)C[C@@H]1Oc2c(NC(=O)CCCCCC(=O)Nc3ccccc3N)cccc2C(=O)N([C@H](C)CO)C[C@@H]1C	3	10	-0.7	0.8	.	i	.	.	.
C[C@@H]1CN([C@@H](C)CO)C(=O)c2cc(-c3cccc(F)c3)cnc2O[C@@H]1CN(C)C(=O)c1ccccn1	1	12	-1.5	-3.3	.	i	.	.	.
CCOc1cc(C2C(C(=O)OC)=C(C)N=C3SC(C)C(=O)N32)ccc1OC(C)=O (centres undefined)	.	.	.	.	-3.6	.	3%	-12	0.74
CCCCC[C@@H](C)N1C[C@@H](COCc2ccccc2)Oc2cc(N3CCC[C@@H]3CO)ccc2S1(=O)=O	21	12	3.9	2.7	4.4	i	.	.	.
CC(C)(C)c1ccc(C(=O)N2CCC2(C)C(=O)Nc2cccc(C#N)c2)cc1 (centres undefined)	3	-13	5.0	-1.9	-2.0	i	.	.	.

Continuation:
compound	rRNA inh HTS	rRNA inh HTS OD600	rRNA inh HTS RFP	MLL AF4-AF9 inh	HNF4A DNA FP	FGF22 binding	Vif TR-FRET	ALR inh	Ecoli growth
Cc1ccc(Sc2ccc(N)cn2)cc1	3	2	4.1	-6.3	4.6	i	1%	-22	0.66
COc1nc(OC)nc(N2CCC(C(=O)Nc3cccc4c3CCCC4)CC2)n1	.	.	.	.	1.3	.	-1%	-3	0.72
O=C(CCNS(=O)(=O)c1ccc(Br)cc1)NCc1ccco1	0	2	0.4	-0.1	1.2	i	0%	.	0.63
O=C(C[C@H]1CC[C@H](NC(=O)c2ccncc2)[C@H](CO)O1)Nc1ccccc1	-1	2	-2.3	-1.0	.	i	.	.	.
O=C(NCc1ccc(Cl)cc1)C(=O)c1c[nH]c2ccccc12	-6	2	5.7	-1.5	-0.7	i	-5%	-2	0.69
CC(=O)N1CCc2cc(Br)cc(S(=O)(=O)N3CCCCCC3)c21	.	.	.	.	0.5	.	?	2	0.72
COc1nc(N)nc(CC(=O)C2CC2)n1	.	.	.	.	2.3	.	?	6	0.76
O=C(O)c1ccc(Cn2cnc3scc(-c4ccccc4)c3c2=O)cc1	-12	-20	3.0	-2.8	-1.1	i	-4%	5	0.7
N#CCOc1ccccc1/C=C/c1nc2ccccc2c(=O)[nH]1	-2	7	1.7	1.1	4.5	i	-3%	3	0.65
COc1cccc(-n2c(COc3ccc(C)cc3)nnc2SCC(=O)O)c1	.	.	.	.	2.1	.	-1%	-3	0.68
O=C(c1ccccc1-c1nc(-c2ccccc2)no1)N1CCOCC1	.	.	.	.	-0.8	.	6%	-3	0.71
O=C1/C(=C/c2ccncc2)N=C2CCCCCN12	15	8	-1.5	5.3	0.6	i	.	-2	0.66
O=C(COC(=O)CNS(=O)(=O)/C=C/c1ccccc1)Nc1cc(S(=O)(=O)N2CCCCC2)ccc1Cl	5	5	2.1	-2.0	-1.1	i	.	0	0.7
COc1ccc(NC(=O)CSc2nnc(C3CC3)n2-c2ccccc2)cc1	.	.	.	.	2.6	.	13%	-2	0.61
CCCCC(=O)N(C)c1c(C)nc2ccc(C(=O)N3CCNC(=O)C3)cn12	13	17	1.7	-2.3	4.0	i	.	.	.
COc1ccccc1CNC(=O)/C=C/c1cc2c(cc1Br)OCO2	.	.	.	.	3.4	.	-3%	.	0.7
CC(C)Sc1nnc([C@H](Cc2c[nH]c3ccccc23)NC(=O)OC(C)(C)C)o1	.	.	.	.	5.4	.	14%	1	0.66
CC(C)Oc1cc2oc(=O)c3c(c2cc1Cl)CCC3	.	.	.	.	-0.7	.	2%	-3	0.67
CCOCCCNc1nc2c(c(=O)[nH]c(=O)n2C)n1CCCc1ccccc1	.	.	.	.	1.1	.	3%	.	0.71
CO[C@H]1CN(C)C(=O)c2ccc(NC(=O)NC(C)C)cc2OC[C@@H](C)N(Cc2ccc(-c3ccccn3)cc2)C[C@H]1C	2	7	-0.4	2.5	.	i	.	.	.
C[C@H]1CN([C@@H](C)CO)C(=O)c2cc(-c3cccc(F)c3)cnc2O[C@@H]1CN(C)C(=O)c1cnccn1	6	9	1.0	-2.1	.	i	.	.	.
N#Cc1cc2ccc(N3CCOCC3)cc2cc1C#N	-34*	-25*	-2.7*	3.7	-0.8	i	9%	-41	0.76
COc1ccc(C2SCC(=O)N2c2ccc(C)cc2)cc1 (centres undefined)	-13	-11	-2.4	3.4	-3.9	i	.	32	0.72
Cc1nn(Cc2ccc(F)cc2)c(C)c1NC(=O)c1noc2c1CCc1ccccc1-2	-4	9	3.3	-2.1	3.3	i	69%	-57	0.75
CCC(C)NC(=O)Cn1cnc2sc(C)cc2c1=O (centres undefined)	.	.	.	.	-4.1	.	2%	-2	0.72
Cc1oc(-c2cccc(Cl)c2)nc1CN1CCC(C(=O)N2CCN(c3ccccc3F)CC2)CC1	-33	-79	-25	5.3	-0.6	i	10%	-6	0.62
Cc1ccc(F)c(S(=O)(=O)NC(=O)C2(C)CCN2C(=O)Cc2ccc(Cl)cc2Cl)c1 (centres undefined)	11	15	3.3	-8.2	1.8	i	.	.	.
CC(=O)c1ccc(N2Cc3ccccc3/C2=N\C(=O)Nc2ccc(Cl)cc2)cc1	.	.	.	.	-2.3	.	7%	-21	.
CC(C)OC(=O)Cc1nc2sc(-c3ccccc3)cc2c(=O)[nH]1	0	1	2.0	-1.6	4.7	i	-21%	-18	0.69
Cn1nccc1C(=O)Nc1sc2c(c1C(N)=O)CCCC2	4	10	2.4	0.2	0.2	i	?	-4	0.69

The results go on.
compound	rRNA inh HTS	rRNA inh HTS OD600	rRNA inh HTS RFP	MLL AF4-AF9 inh	HNF4A DNA FP	FGF22 binding	Vif TR-FRET	ALR inh	Ecoli growth
COc1cc2cc(C(=O)N[C@@H](Cc3ccccc3)C(=O)O)n(C)c2c(OC)c1OC	14	7	1.5	-0.5	2.2	i	-8%	-18	0.62
CO[C@H]1CN(C)C(=O)c2ccc(NC(=O)NC(C)C)cc2OC[C@H](C)N(C(=O)NC(C)C)C[C@H]1C	2	19	-4.0	-0.5	.	i	.	.	.
Cc1ccc(-n2[nH]c(C)c(C=Nc3ccc(S(=O)(=O)Nc4nccs4)cc3)c2=O)cc1C	21	17	0.8	4.1	-3.5	i	-2%	2	0.64
O=C1NC(c2ccccc2)Nc2c1sc(=S)n2-c1ccccc1 (centres undefined)	-9	-12	1.9	0.7	8.9	i	.	10	0.71
C[C@H](CO)N1C[C@H](C)[C@@H](CN(C)CC2CCCC2)Oc2cc(C3=CCCCC3)ccc2S1(=O)=O	-1	-14	6.9	5.2	.	i	.	.	.

Screening results as filed in PubChem.

A portion of the library, so the mix of outcomes need not match the whole.
